ClpP mod: qHTS Assay for Activators of ClpP. ATP-dependent Clp protease proteolytic subunit (Bacillus subtilis (strain 168)), P80244. purified B. subtilis ClpP, FRET peptide cleavage, 20 min. Potency, µM (doses to about 57.5 µM), for the others: top-dose activity change, negative = active. actives 1.9% (n = 340,000). AID 651965, 2013; active = well fitted falling curve with a large enough effect; inconclusive = small, poorly fitted or top-dose-only effect; inactive = no such curve, though single readings can be large or run the other way; further: potency means the concentration at half of the fitted maximal effect; the source files actives as falling curves though it sought activators and does not explain the sign; nearly all actives have a fitted effect of over 65% in size; many hits overshoot -100%
Target sequence (P80244 whole entry, looked up): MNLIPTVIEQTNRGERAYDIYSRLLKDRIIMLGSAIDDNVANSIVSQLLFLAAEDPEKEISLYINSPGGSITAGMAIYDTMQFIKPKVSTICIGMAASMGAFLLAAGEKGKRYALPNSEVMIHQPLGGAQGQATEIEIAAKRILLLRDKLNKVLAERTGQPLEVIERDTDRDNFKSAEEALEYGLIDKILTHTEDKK
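Purified B. subtilis ClpP, 10 microg/mL final in Tris/HCl pH8 with KCl, BSA, glycerol and Tween-20, cleaved an Abz/nitrotyrosine-quenched decapeptide. Fluorescence (ex 320, em 430) was read at 0 and 20 min at room temperature. Delta was normalized to 5.8 microM ADEP and DMSO/no-enzyme controls.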
TRPV1 potentiator: enhances activation of the human vanilloid receptor TRPV1. Q8NER1. TRPV1-expressing cells, Fluo-8 calcium influx, capsaicin EC20 potentiation; host cell line not named in the record; control for the full effect not named in the record. potentiation, % at 8.33 µM. actives 0.02% (n = 320,000); active means potentiation above 80%; inconclusive means 30% to 80%; inactive means below 30%; further: 0% is about no effect
Target sequence (Q8NER1 whole entry, looked up): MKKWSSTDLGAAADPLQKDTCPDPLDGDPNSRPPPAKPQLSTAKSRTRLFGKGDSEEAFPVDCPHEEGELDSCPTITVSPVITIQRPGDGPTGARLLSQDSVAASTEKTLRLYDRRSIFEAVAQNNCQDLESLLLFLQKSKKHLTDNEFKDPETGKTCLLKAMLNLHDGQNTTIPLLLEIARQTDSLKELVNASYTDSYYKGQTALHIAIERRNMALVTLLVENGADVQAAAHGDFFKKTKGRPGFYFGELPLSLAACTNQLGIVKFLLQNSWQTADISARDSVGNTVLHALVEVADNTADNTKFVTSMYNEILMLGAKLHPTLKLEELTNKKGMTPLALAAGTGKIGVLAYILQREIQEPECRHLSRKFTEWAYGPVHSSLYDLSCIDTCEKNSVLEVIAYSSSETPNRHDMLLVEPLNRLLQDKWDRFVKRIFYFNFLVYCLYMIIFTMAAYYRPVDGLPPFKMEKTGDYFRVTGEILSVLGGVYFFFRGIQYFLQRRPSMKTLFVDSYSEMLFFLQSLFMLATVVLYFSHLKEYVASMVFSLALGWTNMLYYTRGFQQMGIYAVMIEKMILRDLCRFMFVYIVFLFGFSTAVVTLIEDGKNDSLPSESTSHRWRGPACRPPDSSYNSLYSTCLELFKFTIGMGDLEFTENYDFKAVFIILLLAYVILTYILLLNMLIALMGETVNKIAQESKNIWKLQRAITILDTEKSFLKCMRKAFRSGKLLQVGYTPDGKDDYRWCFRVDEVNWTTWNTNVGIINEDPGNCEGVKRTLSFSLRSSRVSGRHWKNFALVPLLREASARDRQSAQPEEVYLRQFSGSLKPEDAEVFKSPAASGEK
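Cells expressing TRPV1 were dye-loaded with Fluo-8 and read kinetically: 10 s baseline, 3 min after compound (agonist portion), then 2 min after EC20 capsaicin (allosteric enhancer portion). Calcium-bound dye fluorescence at 480/520 nm.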
gsp ag: gsp mutant agonism; actives 0.13% (n = 340,000); Potency, µM (highest dose often 76.9 µM), inactives show at the highest dose activation (cAMP increase), hits mostly activators; gsp mutant cells, cAMP HTRF, 30 min; control for the full effect not named in the record; active = well fitted activation curve with a large enough effect; inconclusive = small, poorly fitted or top-dose-only effect, or another doubt; inactive = no such curve, though single readings can be large or run the other way; cell line not stated here;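 further: phosphodiesterase inhibitor Ro 20-1724 added with compounds to block cAMP breakdown; potency means the concentration at half of the fitted maximal effect; nearly all actives have a fitted effect of over 60% in size; about a fifth of the inactives were tested at one dose only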
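Cells stably selected in G418 were plated at 2000/well, grown 16-24 hr, then given compounds in DMSO with the PDE inhibitor […] (300 uM solution added) for 30 min at 37C; cAMP was read by HTRF.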
CtBP-E1A inh: CtBP/E1A binding inhibition; AlphaScreen GST-E1A/His-CtBP binding, 1536-well; active compounds read low; control for the full effect not named in the record; activity change, % (test concentration not listed); actives 0.49% (n = 340,000); AID 651724; in the data active means activity change below about -65%; inconclusive means about -30% to -65%; inactive means above about -30%; further: on the % scale 0 is the no-effect control and ±100 the full control effect
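Homogeneous bead-based format: GST-tagged E1A captured on glutathione donor beads, His-tagged CtBP on nickel acceptor beads; compounds precede bead addition by 2 h at 37 °C.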
Menin-MLL FL inh: menin-MLL binding inhibition, fluorescein peptide. Fluorescence polarization, fluorescein-MLL peptide displacement from menin. FP activity change, % at 61.4 µM. 290,000 tested, under 10 active. AID 1766; inconclusive = falling polarisation curve, or a change in total fluorescence; inactive = total fluorescence flat and polarisation flat or rising; no compound was filed as active; the % refers to the polarisation; negative = inhibition;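 further: % of control where 0% means no effect; inhibitors lower the polarisation; unlabelled MLL peptide was the positive control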
gsp antagonist: antagonists of gsp mutant (McCune-Albright syndrome). gsp-mutant cells, cAMP HTRF, 30 min; control for the full effect not named in the record. Potency, µM (highest dose often 76.9 µM), without a hit: top-dose activity change, negative = inhibition, actives largely listed as inhibitors. actives 0.4% (n = 340,000). AID 624288; active = falling curve of any shape with a large fitted effect; inconclusive = falling curve, mostly with a smaller effect; inactive = flat or rising curve; cell line not stated here;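 further: intracellular cAMP measured with PDE inhibitor Ro 20-1724 present during compound exposure; potency means the concentration at half of the fitted maximal effect; on the % scale 0 is the no-effect control and ±100 the full control effect; nearly all actives have a fitted effect of over 65% in size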
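HTRF cAMP measurement after 30 min RT detection following 30 min, 37C compound treatment alongside […] (added as 300 uM solution) in G418-selected cells seeded at 2000/well and grown 16–24 h.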
Sfp inh: inhibitors of Bacillus subtilis Sfp phosphopantetheinyl transferase. Q9F4F7. Biochemical Sfp PPTase activity, qHTS. Potency, µM, without a hit: max response, negative = inhibition, hits mostly inhibitors. actives 3.5% (n = 310,000). AID 1490; active means well fitted inhibition curve with a large enough effect; inconclusive means small, poorly fitted or top-dose-only effect, or another doubt; inactive means no such curve, though single readings can be large or run the other way;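 further: the enzyme is Sfp with the accession as filed and its product quenches rhodamine fluorescence; potency means the concentration at half of the fitted maximal effect; 0% = enzyme reaction without inhibitor and -100% = no enzyme wells; top concentration of the series not given in the record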
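Sfp 15 nM + cpd, 15 min RT; start w/ rhodamine-CoA 5 uM, BHQ-2-YbbR 12.5 uM (final); 50 mM Hepes pH 7.6, 10 mM MgCl2, 0.01% NP-40, 0.01% BSA; read 525/598 nm at 0 and 30 min.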
* = called active by the depositor; ? = inconclusive; nt = no result given; [ ] = remark or other dose.

SMILES	ClpP mod	TRPV1 potentiator	gsp ag	CtBP-E1A inh	Menin-MLL FL inh	gsp antagonist	Sfp inh
C#CCOCCOCCOCCNc1nc(N2CCN(C(=O)[C@H](C)n3cc(CCC(=O)O)nn3)CC2)nc(N2CCN(C(=O)[C@H](CCCCN)n3cc(CCCC)nn3)CC2)n1	-0.6%	nt	nt	7	nt	-3%	nt
C=CCn1c(Cc2csc(N)n2)nnc1SCC(=O)OCC	-2.5%	?	?	-5	3.5	2%	-7%
O=C(O)C1CCN(Cc2ccccn2)CC1	nt	3	-4%[15.4 µM]	-24	-3.5	3%	0%
O=C(NC1CC1)C1Nc2ccc(OC(F)(F)F)cc2C2C=CCC12 (stereo not drawn)	-0.9%	nt	-44%[inhibitor]	3	nt	-6%	nt
C1CCCCCC(NCCN2CCNCC2)CCCCC1	-4.3%	6	7%[15.4 µM]	-1	2.4	17%	28%
C/C(=C\C(=O)c1ccc(Cl)cc1Cl)N(C)C	nt	4	?	4	3.4	4%	12%
Cc1ccccc1CN(C)C[C@H]1OCc2cnnn2CCCC(=O)N([C@@H](C)CO)C[C@@H]1C	0.5%	nt	-20%	4	nt	nt	nt
COC(C[C@H]1O[C@@H]1[C@H](O)[C@H](C)OCc1ccccc1)OC	0.9%	nt	10%	8	nt	6%	nt
Cc1cccc(-c2nnc3sc(-c4ccccc4)nn23)c1	-0.3%	-23	-27%	-4	4.4	-6%	-12%
O=C1CCC(=O)N1CC1CC2CCC1C2 (stereo not drawn)	nt	-4	3%[15.4 µM]	9	2.7	15%	12%
C[C@@H](NC(=O)Cn1ccc(N)nc1=O)c1cccc2ccccc12	-2.1%	5	nt	-7	nt	-4%	nt
COc1ccc(NC(=O)N2CCCc3cccc(C)c32)cc1	-2.4%	-4	18%	nt	1.6	-4%	-5%
CCOc1ccc2nc(SCC(=O)Nc3ccc(S(=O)(=O)N4CCCC4)cc3)c(C)cc2c1	-10.0%	-9	?	2	0.3	44%[activator]	12%
COc1cc(OCc2ccccc2)c(OC)c(OCc2ccccc2)c1	nt	nt	2%	56	nt	-9%	nt
CCCCN(C)CCNC(=O)c1c[nH]c2ccc(S(=O)(=O)N(CC)CC)cc2c1=O	?	-2	-8%	-5	1.5	9%	5%
Cc1ccc(NC(=O)C2(c3ccccc3)CCOCC2)c([N+](=O)[O-])c1	nt	-14	1%[15.4 µM]	-11	1.3	7%	6%
COC(=O)Nc1ccc(S(=O)(=O)N2CCC(C(=O)NC3CCCCC3)CC2)cc1	-0.5%	-4	-115%[inhibitor]	nt	5.3	-1%	-3%
Cc1cc(NC(=O)CCC(=O)N(c2cccc(F)c2)C(C(=O)NC2CCCC2)c2ccncc2)no1 (stereo not drawn)	-1.6%	-4	4%	0	-0.9	0%	11%
CC1CCCCC12NC(=O)N(CC(=O)Nc1ccc(Cl)c(S(=O)(=O)N3CCOCC3)c1)C2=O (stereo not drawn)	nt	1	8%[15.4 µM]	-1	nt	-10%	nt
CC(=O)Nc1ccccc1OCCOc1ccc(Br)cc1	nt	-12	-23%[15.4 µM]	0	6.9	?	-31%
COc1ccccc1/C=C\C(=O)NCC(=O)N/N=C(\C)Cc1ccccc1	nt	-4	-19%[15.4 µM]	-8	-0.9	-1%	9%
CCOc1ccc(CC(=O)N/N=C(\C)c2cccnc2)cc1	-0.1%	3	-35%[inhibitor]	-9	-3.1	9%	10%
Cc1cc(C)c(C(=O)CSc2nc3ccccc3c(=O)[nH]2)cc1C	0.1%	29	0%[15.4 µM]	12	0.4	-8%	7%
COC(=O)c1nc(NC(=O)c2ccc(F)cc2)n[nH]1	nt	0	-15%[15.4 µM]	0	-0.7	9%	-19%
COc1ccc(NS(=O)(=O)c2cccc(C(=O)NCC(c3ccco3)N3CCCC3)c2)cc1 (stereo not drawn)	nt	1	6%[15.4 µM]	9	nt	6%	nt
O=C(OCc1ccccc1)N1CCC2CC1c1c(Cl)cccc12 (stereo not drawn)	1.4%	nt	nt	17	nt	-16%	nt
O=C(NCC(=O)N(c1cccnc1)C(C(=O)NC1CCCCC1)c1cccnc1)c1ccco1 (stereo not drawn)	-0.4%	6	-16%	3	1.7	4%	4%
COc1cc(C(=O)NCC2CCCO2)ccc1OCc1ccccc1 (stereo not drawn)	-4.0%	-24	3%[15.4 µM]	-1	nt	0%	8%
COc1cccc(N2C(=O)CC(N3CCC(c4nc5ccccc5[nH]4)CC3)C2=O)c1 (stereo not drawn)	-1.4%	-16	0%	3	1.7	-1%	-1%
CCCC(=O)Nc1ccc(Cl)c(NC(=O)c2ccc(Br)o2)c1	-0.1%	-12	13%	2	1.4	-32%	-2%
CCOc1ccc(C(=O)c2nc3c(n2O)CCCCC3)cc1	-4.6%	5	-28%	0	4.7	2%	15%
O=C(NCCCl)NNC(=O)c1cc2ccccc2cc1O	nt	14	-3%[15.4 µM]	-7	3.1	2%	18%
Cc1nnc(SC(C)C(=O)Nc2ccc3c(c2)OCCO3)s1 (stereo not drawn)	0.4%	0	-35%[inhibitor]	7	-2.7	8%	?
COc1cccc(-c2cc(C(=O)N3CCN(c4ncccn4)CC3)c3ccccc3n2)c1	-17%	4	-18%	-21	0.2	-20%	-16%
O=C(NCc1ccccc1)c1cccc(S(=O)(=O)N2CCCCC2)c1	nt	-12	14%	4	1.2	-3%	18%
NS(=O)(=O)c1ccc(CCNC(=O)CNC(=O)C2CCCCC2)cc1	-1.3%	-7	-23%	1	2.9	4%	11%
COC(=O)c1ccc(C(=O)N2CCCC(N3CCN(c4ccccc4)CC3)C2)nc1 (stereo not drawn)	-1.4%	11	-6%	4	nt	8%	13%
CC(C)C[C@H]1CNC(=S)N1CC1CCN(CCC2CCCC2)CC1	-1.9%	nt	nt	-4	nt	11%	nt
COc1ccc([C@@H]2[C@@H](C(=O)C(C)(C)C)N3N=Cc4ccccc4[C@@H]3C23C(=O)OC(C)(C)OC3=O)cc1OC	-1.6%	10	-1%[15.4 µM]	-12	nt	14%	20%
COCCCn1c(SCc2nnc(-c3ccc(OC)c(OC)c3)o2)nnc1-c1ccncc1	-1.1%	?	14%	-3	4.0	-13%	-1%
CCCC(C)NC(=O)CN(Cc1ccco1)S(=O)(=O)c1ccccc1 (stereo not drawn)	-1.3%	-15	-3%	nt	nt	4%	nt
CN1CCCCCC1C(=O)N1CCC(N2CCC(C(=O)N3CCOCC3)CC2)CC1 (stereo not drawn)	nt	-8	-22%[15.4 µM]	3	-1.9	6%	-3%
CC(C)n1c(NCc2nc3ccccc3n2C)nc2ccccc21	-2.5%	12	15%	-18	0.1	7%	6%
Cn1c(SCC(=O)N2CCCc3ccccc32)nnc1-c1ccco1	-0.9%	-3	13%	-13	2.9	4%	6%
S=C1NCN(C2CCCCC2)CN1c1ccccc1	-0.6%	?	0%	nt	4.7	7%	7%
COc1ccc(CN2C(=O)COc3ccccc32)cc1	nt	9	-42%[inhibitor]	8	2.6	-7%	10%
Brc1ccc(C2=CC(c3cccs3)n3ncnc3N2)cc1 (stereo not drawn)	32µM*	-11	-31%[inhibitor]	-16	?	-9%	79µM*
CCOc1cc(C(c2c(C)[nH][nH]c2=O)c2c(C)[nH][nH]c2=O)cc(Cl)c1O	-2.1%	-3	-21%	-3	?	1%	-23%
CN1CCc2c(n(CC(O)CN(CCO)CCO)c3ccccc23)C1=O (stereo not drawn)	-22%	-7	8%	nt	-9.1	14%	?
c1ccc(CCc2nn3c(C4COc5ccccc5O4)nnc3s2)cc1 (stereo not drawn)	-0.2%	-27	?	2	0.0	5%	-72%
Cc1ccc(-c2nc(C#N)c(NCCc3ccccn3)o2)cc1	?	-15	0%	1	1.6	3%	-15%
COc1ccccc1OCC#CCn1ccnc1	0.2%	-2	19%	nt	1.6	-1%	-18%
CC(=O)N(c1ccc(C)cc1)S(=O)(=O)c1ccc(Cl)cc1	nt	-8	-24%	8	2.7	-11%	15%
[O-]/C(=C(\C(=S)Nc1cccc2ccccc12)[n+]1cccc(CO)c1)c1ccc(Cl)s1	-14%	4	18%	-12	1.8	-14%	-21%
CN1CCN(c2ccc([N+](=O)[O-])c(Sc3nc4ccccc4[nH]3)c2)CC1	-1.3%	-11	5%	-2	3.3	0%	4%
CCOc1cccc(/C=N/NC(=O)CC2C(=O)NN=C2C)c1O (stereo not drawn)	nt	-5	0%[15.4 µM]	-29	0.8	-10%	0%
CCCC1(c2ccccc2)NC(=O)N(CCN2C(=O)c3ccccc3C2=O)C1=O (stereo not drawn)	1.4%	-11	-28%	4	6.2	11%	4%

One compound at a time, from the list above. Values in the order: ClpP mod, TRPV1 potentiator, gsp ag, CtBP-E1A inh, Menin-MLL FL inh, gsp antagonist, Sfp inh
`CCCC1(c2ccccc2)NC(=O)N(CCN2C(=O)c3ccccc3C2=O)C1=O` (stereo not drawn) is listed as 1.4%, -11, -28%, 4, 6.2, 11%, 4%
`CC(C)n1c(NCc2nc3ccccc3n2C)nc2ccccc21` is listed as -2.5%, 12, 15%, -18, 0.1, 7%, 6%
`[O-]/C(=C(\C(=S)Nc1cccc2ccccc12)[n+]1cccc(CO)c1)c1ccc(Cl)s1` is listed as -14%, 4, 18%, -12, 1.8, -14%, -21%
`CN1CCN(c2ccc([N+](=O)[O-])c(Sc3nc4ccccc4[nH]3)c2)CC1` is listed as -1.3%, -11, 5%, -2, 3.3, 0%, 4%

3 of the compounds above, with bars between the fields:
molecule | ClpP mod | TRPV1 potentiator | gsp ag | CtBP-E1A inh | Menin-MLL FL inh | gsp antagonist | Sfp inh
Brc1ccc(C2=CC(c3cccs3)n3ncnc3N2)cc1 (stereo not drawn) | 32µM* | -11 | -31%[inhibitor] | -16 | ? | -9% | 79µM*
CCOc1cc(C(c2c(C)[nH][nH]c2=O)c2c(C)[nH][nH]c2=O)cc(Cl)c1O | -2.1% | -3 | -21% | -3 | ? | 1% | -23%
CN1CCc2c(n(CC(O)CN(CCO)CCO)c3ccccc23)C1=O (stereo not drawn) | -22% | -7 | 8% | nt | -9.1 | 14% | ?

Screens from PubChem.
